LANA-H2B inh – blockers of LANA interaction with H2A/H2B – biochemical, FP readout, HTS, primary screen; cell-free LANA-H2A/H2B peptide, fluorescence polarization; 320,000 tested, 0.6% active; AID 2629, 2010; inhibition, % (test concentration not listed); in the data active = inhibition mostly above about 10%, no sharp cut-off; inactive = mostly below about 6.7%;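 also: stock transfer was 7.5 nL into about 10 µL; 0% = median of vehicle wells and 100% = median of positive control wells; one replicate is shown; the record names a cut of 25% in any replicate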
A1 inh – caspase 3/7 activation in MEF A1-2A-BIM cells, primary screen, A1 inhibitor project, cell-based, luminescence, HTS | Caspase-Glo 3/7 luminescence, 3 h; percent of clofoctol response, vehicle zero | caspase activation, % (concentration not given with the values) | 330,000 tested, 0.066% active;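 active = over half of replicate activation scores above 10%, or exactly half above 10 with the replicate mean above 10; inconclusive = replicate mean below 10 yet half the replicates above 10; inactive = over half of replicates below 10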;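 also: wells of about 30 µL received 50 nL stock; many hits fall short of the cut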
ALR inh – inhibitors of human ALR sulfhydryl oxidase, primary screen, biochemical, H2O2 detection, HRP-luminol luminescence, single point; purified ALR, DTT oxidation; inhibition, % (test concentration not listed); 290,000 tested, 3.8% active;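 active = mean and each replicate at 75% or more; inconclusive = only one of the two met; inactive = neither met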;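 also: stock transfer was 7.5 nL into about 7.5 µL; 0% = neutral wells and 100% = wells with inactivated enzyme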
Target sequence (P55789 whole entry, looked up): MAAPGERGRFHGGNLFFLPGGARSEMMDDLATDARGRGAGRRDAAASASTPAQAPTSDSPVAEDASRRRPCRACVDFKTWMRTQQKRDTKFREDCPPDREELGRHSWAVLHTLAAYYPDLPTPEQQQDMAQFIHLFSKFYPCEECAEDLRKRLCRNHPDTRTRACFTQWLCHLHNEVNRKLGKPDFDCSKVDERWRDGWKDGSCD
Beta cell apopt – inhibitors of cytokine-induced beta cell apoptosis, primary screen, luminescence. AID 435005, 2010. 300,000 tested, 0.8% active. protection from apoptosis, % (test concentration not listed). INS-1E cytokine-induced death, ATP luminescence, 48 h; percent of positive-control rescue, neutral wells zero;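 active = all replicates at 75% or more, or half of them and the mean; inconclusive = half reach 75% but not the mean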;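 also: 0% = cytokine-treated negative control wells and 100% = positive control rescue; higher means more ATP so stronger rescue from cytokine killing; wells of about 40 µL received 100 nL stock; the first replicate is given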
Ecoli rRNA inh – reduced GFP signal of wild-type E. coli, primary screen, bacterial rRNA inhibitor project, GFP/RFP fluorescence, OD600, single point. E. coli WT GFP vs humanized-ribosome RFP mutants, 24 h; stronger effect = lower value; DMSO median 0, no signal -100. GFP signal change (wild-type ribosome), % (concentration not given with the values). 350,000 tested, 1.6% active;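 active = significant combined selectivity score with lowered wild-type GFP, culture density cut under 30%, mutant RFP and density less affected; inactive = any of these conditions unmet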; also: one replicate is shown; some compounds called inactive have numbers as strong as hits
T cruzi inh – inhibitors of intracellular T. cruzi growth, primary screen, luminescence, NIH3T3 host cells | 300,000 tested, 1.4% active | inhibition, % (concentration not given with the values) | T. cruzi beta-gal in NIH3T3, 90 h | AID 1885, 2009;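 active = mean inhibition across valid replicates above about 55%, limit read from the data; inconclusive = mean below that limit but half or more replicates reach it; inactive = mean below it, under half of replicates reach it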;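 also: signal also drops with host cell toxicity which is not excluded here; 0% = plate median of DMSO wells and 100% = zero luminescence signal; higher percent means less beta-gal luminescence so fewer parasites; stock transfer was 50 nL into about 50 µL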
Calb FLC – C. albicans growth inhibition with fluconazole, primary screen, CaCi-2 strain, Alamar Blue fluorescence; C. albicans CaCi-2 (fluconazole-resistant clinical isolate) + fluconazole, 48 h; growth inhibition, % (no concentration beside the values); 300,000 tested, 0.57% active; AID 1979, 2009;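 active = most replicates above 75%; inconclusive = exactly half above 75%; inactive = most below 75%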;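 also: all wells also contain fluconazole at 8 µg/ml as a sub-toxic cotreatment; 0% = median of DMSO wells and 100% = median of geldanamycin control wells; wells of about 8 µL received 7.5 nL stock; the first replicate is given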
B2AR ag – beta2AR agonists driving receptor internalization, primary screen, cell-based, FAP fluorogen, flow cytometry | Beta-2 adrenergic receptor (Homo sapiens), P07550 | 340,000 tested, 0.43% active | response, % (test concentration not listed) | Am2.2-beta2AR cells; reference of the scale not given here;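 active = response above a set limit, near 3 SD of response in nonfluorescent compounds, cut at about 42% in these data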;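 also: stock transfer was 100 nL into about 11 µL; a reference agonist was the positive control; negative values mostly stem from fluorescent compounds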
Target sequence (P07550 whole entry, looked up): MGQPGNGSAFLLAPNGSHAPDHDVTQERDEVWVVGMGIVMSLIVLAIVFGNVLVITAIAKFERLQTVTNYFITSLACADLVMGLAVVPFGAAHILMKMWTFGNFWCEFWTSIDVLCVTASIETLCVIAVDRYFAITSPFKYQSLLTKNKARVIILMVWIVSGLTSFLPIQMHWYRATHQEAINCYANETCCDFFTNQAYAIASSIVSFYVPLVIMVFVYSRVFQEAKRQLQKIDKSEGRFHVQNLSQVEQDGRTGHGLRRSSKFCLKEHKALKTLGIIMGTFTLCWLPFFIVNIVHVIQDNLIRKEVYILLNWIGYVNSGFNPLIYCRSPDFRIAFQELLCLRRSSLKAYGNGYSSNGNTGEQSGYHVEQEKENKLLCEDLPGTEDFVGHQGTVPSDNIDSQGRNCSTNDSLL
Ecoli rRNA inh OD600 – also measured in Ecoli rRNA inh; calls as there; OD600 change, %; measured here: OD600 growth;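 optical density of the mix in the first replicate; 0 = DMSO median and -100 = no signal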
Ecoli rRNA inh RFP – further read-out of Ecoli rRNA inh, marked with its call; RFP signal change, %; measured here: RFP humanized mutant strains;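 first replicate; 0 = DMSO median and -100 = no signal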
* = called active by the depositor. An excerpt, so the mix of outcomes need not match the whole.

For CC(C)CCNC(=O)c1cc2c(s1)-c1ccccc1S(=O)(=O)C2 the results were LANA-H2B inh 0.7, A1 inh -0.2, ALR inh -4, Beta cell apopt 7, Ecoli rRNA inh 4, T cruzi inh 6, Calb FLC -7, B2AR ag 7, Ecoli rRNA inh OD600 2 and Ecoli rRNA inh RFP 0.9.
Screening O=C(C1CCCO1)N1CCN(c2ccccn2)CC1 (configuration not stated) returned LANA-H2B inh 4.1, A1 inh 0.6, ALR inh -2, Beta cell apopt -1, Ecoli rRNA inh -1, T cruzi inh -15, Calb FLC -16, B2AR ag -7, Ecoli rRNA inh OD600 7 and Ecoli rRNA inh RFP -2.0.
Cc1ccc(NC(=O)N2CCCc3ccccc32)cc1C was read as LANA-H2B inh -7.8, A1 inh 0.6, ALR inh -2, Beta cell apopt 10, Ecoli rRNA inh -3, T cruzi inh 5, Calb FLC -2, B2AR ag -4, Ecoli rRNA inh OD600 10 and Ecoli rRNA inh RFP 0.2.
For COc1ccc(Br)cc1S(=O)(=O)N1CCCC1 the results were LANA-H2B inh 4.0, A1 inh -0.2, ALR inh -1, Beta cell apopt -2, T cruzi inh 9, Calb FLC 1 and B2AR ag -4.
Screening COc1ccccc1N(CC1CO1)S(=O)(=O)c1ccc(C)cc1 (configuration not stated) returned LANA-H2B inh -1.5, A1 inh -0.3, ALR inh -4, Beta cell apopt -7, Ecoli rRNA inh 3, T cruzi inh -11, Calb FLC -3, B2AR ag 3, Ecoli rRNA inh OD600 9 and Ecoli rRNA inh RFP -8.5.
For COc1ccc(CNC(=O)CCNS(=O)(=O)c2cc(Br)cnc2N)cc1 the results were LANA-H2B inh 2.8, A1 inh 0.4, ALR inh -9, Beta cell apopt -12, T cruzi inh -5, Calb FLC -9 and B2AR ag 2.
For CC(=O)c1c(C)[nH]c(C(=O)OCC(=O)Nc2cc(C)on2)c1C the results were LANA-H2B inh -3.7, A1 inh 0.3, ALR inh -1, T cruzi inh -1, Calb FLC -4 and B2AR ag 0.
`CN(CCCNC(=O)Cn1c(=O)c2cccn2c2ccccc21)Cc1ccccc1` gave LANA-H2B inh 1.8, A1 inh 0.6, ALR inh -2, Beta cell apopt 4, Ecoli rRNA inh 9, T cruzi inh 17, Calb FLC -5, B2AR ag -1, Ecoli rRNA inh OD600 10 and Ecoli rRNA inh RFP 1.0.
For COc1ccc(OC)c(Nc2nc(NCc3ccco3)nc(N)c2[N+](=O)[O-])c1 the results were LANA-H2B inh 1.2, A1 inh -0.5, ALR inh 0, Beta cell apopt -6, Ecoli rRNA inh 11, T cruzi inh 7, Calb FLC 7, B2AR ag -9, Ecoli rRNA inh OD600 3 and Ecoli rRNA inh RFP 0.9.
CSc1sc(C(=O)N2CCCCC2)c(-c2cccs2)c1C#N was read as LANA-H2B inh -0.2, A1 inh 1.3, ALR inh -2, Beta cell apopt 2, T cruzi inh 10, Calb FLC -4 and B2AR ag -5.

Three successive entries out of the list so far:
For CC(C)CCNC(=O)c1cc2c(s1)-c1ccccc1S(=O)(=O)C2 the results were LANA-H2B inh 0.7, A1 inh -0.2, ALR inh -4, Beta cell apopt 7, Ecoli rRNA inh 4, T cruzi inh 6, Calb FLC -7, B2AR ag 7, Ecoli rRNA inh OD600 2 and Ecoli rRNA inh RFP 0.9.
Screening O=C(C1CCCO1)N1CCN(c2ccccn2)CC1 (configuration not stated) returned LANA-H2B inh 4.1, A1 inh 0.6, ALR inh -2, Beta cell apopt -1, Ecoli rRNA inh -1, T cruzi inh -15, Calb FLC -16, B2AR ag -7, Ecoli rRNA inh OD600 7 and Ecoli rRNA inh RFP -2.0.
Cc1ccc(NC(=O)N2CCCc3ccccc32)cc1C was read as LANA-H2B inh -7.8, A1 inh 0.6, ALR inh -2, Beta cell apopt 10, Ecoli rRNA inh -3, T cruzi inh 5, Calb FLC -2, B2AR ag -4, Ecoli rRNA inh OD600 10 and Ecoli rRNA inh RFP 0.2.

Next compounds follow.
For CCNc1ccc(S(N)(=O)=O)cc1[N+](=O)[O-] the results were LANA-H2B inh 1.5, A1 inh 0.9, ALR inh -2, Beta cell apopt -1, T cruzi inh -14, Calb FLC 6 and B2AR ag 2.
O=C(c1ccccc1)N1CCN(c2ccc(Cl)cc2)CC1 was read as LANA-H2B inh -1.6, A1 inh 0.5, ALR inh 66, Beta cell apopt 1, Ecoli rRNA inh -3, T cruzi inh -10, Calb FLC -2, B2AR ag -1, Ecoli rRNA inh OD600 -3 and Ecoli rRNA inh RFP -1.3.
Cn1c(=O)c(-c2ccccc2N)nc2ccccc21 was read as LANA-H2B inh 2.5, A1 inh 0.8, T cruzi inh -26, Calb FLC -2 and B2AR ag -15.
`CC(=O)N(C)c1ccc(NC(=O)Nc2ccc(Cl)cc2)cc1` gave LANA-H2B inh 2.3, A1 inh 1.3, ALR inh 10, Beta cell apopt 4, T cruzi inh -3, Calb FLC 35 and B2AR ag 7.
For Cn1nnnc1SC(C(=O)Nc1ccc(F)cc1)c1ccccc1 (configuration not stated) the results were LANA-H2B inh 2.1, A1 inh 0.0, ALR inh -4, Beta cell apopt -2, Ecoli rRNA inh -13, T cruzi inh -11, Calb FLC -5, B2AR ag -2, Ecoli rRNA inh OD600 -4 and Ecoli rRNA inh RFP 2.4.
CCOC(=O)C1=C(N)OC2=C(C(=O)CC(C)(C)C2)C1c1cccnc1 (configuration not stated) was read as LANA-H2B inh 8.0, A1 inh -0.3, ALR inh 4, Beta cell apopt -2, T cruzi inh -1, Calb FLC inconclusive and B2AR ag -1.
`O=C(Oc1ccc2c(c1)OCO2)c1ccncc1` gave LANA-H2B inh -0.2, A1 inh 0.8, ALR inh -1, Ecoli rRNA inh 24, T cruzi inh -5, Calb FLC 7, B2AR ag -12, Ecoli rRNA inh OD600 6 and Ecoli rRNA inh RFP 2.9.
Screening O=C(Nc1ccc2c(c1)CCCN2C(=O)c1ccco1)c1cc([N+](=O)[O-])ccc1Cl returned LANA-H2B inh -1.7, A1 inh 1.0, ALR inh 0, Beta cell apopt 6, Ecoli rRNA inh -10, T cruzi inh -26, Calb FLC 1, B2AR ag 6, Ecoli rRNA inh OD600 -5 and Ecoli rRNA inh RFP 1.9.
Screening O=C(Nc1ccccc1N1CCOCC1)c1cccnc1Cl returned LANA-H2B inh -1.4, A1 inh 1.7, ALR inh -6, Beta cell apopt -7, Ecoli rRNA inh 0, T cruzi inh 2, Calb FLC -12, B2AR ag -3, Ecoli rRNA inh OD600 -7 and Ecoli rRNA inh RFP -3.7.
Screening CC(C)(CO)Nc1nc(Nc2ccccc2)nc(Nc2ccccc2)n1 returned LANA-H2B inh -3.4, A1 inh -0.3, ALR inh 1, Beta cell apopt 3, T cruzi inh 28, Calb FLC -4 and B2AR ag -1.
O=C(CSc1nccn1-c1ccc(F)cc1)Nc1ccc2c(c1)OCO2 was read as LANA-H2B inh 0.1, A1 inh -0.4, ALR inh 15, Beta cell apopt 5, T cruzi inh 17, Calb FLC 0 and B2AR ag -7.
`COc1cc2c(cc1OC)C(C(=O)Nc1ccc3c(c1)OCCO3)C1c3ccccc3CCN1C2=O` (configuration not stated) gave LANA-H2B inh -0.1, A1 inh 0.2, ALR inh -6, Beta cell apopt -3, T cruzi inh 14, Calb FLC 24 and B2AR ag 8.
CC(=O)c1c(C)[nH]c(C(=O)OCc2ccc(F)cc2Cl)c1C was read as LANA-H2B inh 1.7, A1 inh 0.6, ALR inh 1, Beta cell apopt 37, Ecoli rRNA inh 10, T cruzi inh 36, Calb FLC 6, B2AR ag 2, Ecoli rRNA inh OD600 4 and Ecoli rRNA inh RFP 0.2.
COc1cc(OC)cc(C(=O)NNC(=O)CNC(=O)c2cccs2)c1 was read as LANA-H2B inh -4.4, A1 inh 0.5, Beta cell apopt -7, Ecoli rRNA inh 6, B2AR ag 0, Ecoli rRNA inh OD600 7 and Ecoli rRNA inh RFP 6.2.
O=C(CN1CC(=O)Oc2ccccc21)OCC(=O)c1cccc(Br)c1 was read as LANA-H2B inh -5.3, A1 inh 0.0, ALR inh -13, Beta cell apopt -11, T cruzi inh -30, Calb FLC 5 and B2AR ag -1.
For CN1CCN(c2c([N+](=O)[O-])cnc3ccccc23)CC1 the results were LANA-H2B inh 5.6, A1 inh -0.3, ALR inh -6, Beta cell apopt -3, Ecoli rRNA inh 13, T cruzi inh 5, Calb FLC -2, B2AR ag -6, Ecoli rRNA inh OD600 4 and Ecoli rRNA inh RFP 1.7.
For CC(=O)NC(CCS(C)(=O)=O)C(=O)Nc1c(C)cccc1C (configuration not stated) the results were LANA-H2B inh 7.8, A1 inh -0.7, ALR inh -5, Beta cell apopt -3, Ecoli rRNA inh 12, T cruzi inh -13, Calb FLC 0, B2AR ag 2, Ecoli rRNA inh OD600 9 and Ecoli rRNA inh RFP -5.0.
`CC(C(=O)NC(=O)NC1CCCCC1)N1CCN(c2ccc(O)cc2)CC1` (configuration not stated) gave LANA-H2B inh -0.3, A1 inh -1.3, ALR inh 99*, Beta cell apopt -2, Ecoli rRNA inh -16, B2AR ag -8, Ecoli rRNA inh OD600 -11 and Ecoli rRNA inh RFP -4.3.
O=C(c1cccs1)N1CCC(c2nc3c(nnn3Cc3c(Cl)cccc3Cl)c(=O)[nH]2)CC1 was read as LANA-H2B inh -3.3, A1 inh 0.5, Beta cell apopt 6, Ecoli rRNA inh 0, T cruzi inh -4, Calb FLC 0, B2AR ag -4, Ecoli rRNA inh OD600 1 and Ecoli rRNA inh RFP 1.1.
O=C(Oc1ccc2c(c1)CCC2)N1CCOCC1 was read as LANA-H2B inh -2.9, A1 inh -0.9, Beta cell apopt 4, T cruzi inh -4, Calb FLC 5 and B2AR ag -2.
NS(=O)(=O)c1ccc(CCNC(=O)c2cc(-c3ccccn3)nc3ccc(Br)cc23)cc1 was read as LANA-H2B inh 4.7, A1 inh -0.3, ALR inh -26, Beta cell apopt 16, Ecoli rRNA inh 24, T cruzi inh 17, Calb FLC 0, B2AR ag 2, Ecoli rRNA inh OD600 25 and Ecoli rRNA inh RFP 39.
`CN(C)c1ccc([C@@H]2[C@@H]([N+](=O)[O-])[C@H]3C=Cc4ccccc4N3[C@H]2C(=O)c2ccc(Cl)cc2)cc1` gave LANA-H2B inh -2.9, A1 inh 1.1, ALR inh -4, Beta cell apopt 44, Ecoli rRNA inh -28*, B2AR ag -3, Ecoli rRNA inh OD600 -14* and Ecoli rRNA inh RFP 6.9*.
Screening Cc1ccc2c(c1)-n1c(nc3ccc(C)cc3c1=O)C(Cc1ccc(O)cc1)NC2=O (configuration not stated) returned LANA-H2B inh 0.5, A1 inh 2.0, ALR inh 1, Beta cell apopt 2, Ecoli rRNA inh -5, Ecoli rRNA inh OD600 3 and Ecoli rRNA inh RFP -3.2.
